# Screens from PubChem.
# UUG fidelity = modulators of yeast start codon fidelity, primary screen, whole organism, S. cerevisiae, single point, plate reader | S. cerevisiae UUG-firefly luciferase reporter, luminescence/redox ratio | actives 0.13% (n = 350,000) | activity score, % at 18.7 µM | AID 602363, 2012;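 active = replicate mean at a twofold rise or more, about +100% in these data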;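 also: firefly luciferase made from a UUG start codon reports start codon fidelity; reporter light over untreated wells divided by growth signal over untreated wells; some hits fall short of that in this replicate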
# MT1-MMP act inh = blockers of MT1-MMP proenzyme processing, primary screen, HT1080 RFP-PRO-GFP cells, GFP/RFP fluorescence; Matrix metalloproteinase-14 (Homo sapiens), P50281; GFP/RFP ratio fluorescence, overnight; percent of plate control window, DMSO zero; GFP/RFP ratio change, % at 20 µM; actives 0.061% (n = 360,000); AID 651647, 2012;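 active = GFP/RFP ratio change of at least 30% with cell ATP level not reduced by more than half and red fluorescence within 50% of control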; also: strong numbers were not always called active
#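 Assay system – RFP-PRO-GFP reporter HT1080 cells · Compound dosing – single dose of 20 µM compound, 1% DMSO final · Incubation – overnight compound exposure at 37 °C · Measure – GFP/RFP fluorescence ratio · Benchmarks – DMSO wells and RFP-L50D-GFP cells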
# CSC inhib = cancer stem cell viability inhibitors, primary screen, luminescence. cancer stem cell-like cells viability. inhibition, % at 7.5 µM. actives 1.1% (n = 300,000). AID 2717, 2010;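 active = mean at 75% or more and at least half the replicates too; inconclusive = mean and replicates disagree; tested in HMLE shEcad cells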;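 also: 0% = median of negative and 100% = median of positive control wells; the first replicate is given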
# eIF4H inh = human eIF4H binding inhibitors, primary screen, translation initiation inhibitor project, biochemical, uHTS, fluorescence polarization; eIF4H fluorescence polarization binding assay; inhibition, % at 35 µM; actives 0.94% (n = 290,000); Eukaryotic translation initiation factor 4H (Homo sapiens), Q15056; AID 2012, 2009;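 active = 50% or more with normal probe brightness, or confirmed in later tests; inconclusive = above 50% with abnormal brightness, or retests that disagree; inactive = below 50% or failed in later tests; about a fifth of its hits are not listed in these tables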;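 also: calls also rest on retests at 20 µM and on dose response follow-up; 0% = protein and probe with vehicle and 100% = probe without protein; strong numbers were not always called active; many hits fall short of the cut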
# PABP FP inh = PABP poly(A) RNA binding inhibitors, primary screen, biochemical, fluorescence polarization, uHTS | Polyadenylate-binding protein 1 (Homo sapiens), P11940 | inhibition, % at 35 µM | actives 1% (n = 290,000) | AID 2014, 2009;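 active = 50% or more with normal probe brightness, or confirmed in later tests; inconclusive = above 50% with abnormal brightness, or retests that disagree; inactive = below 50% or failed in later tests; about a fifth of its hits are not listed in these tables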;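 also: calls also rest on retests at 20 µM and on dose response follow-up; controls were probe without protein and protein plus probe with vehicle; some compounds called inactive have numbers as strong as hits; many hits fall short of the cut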
# Target sequence (P11940 whole entry, looked up): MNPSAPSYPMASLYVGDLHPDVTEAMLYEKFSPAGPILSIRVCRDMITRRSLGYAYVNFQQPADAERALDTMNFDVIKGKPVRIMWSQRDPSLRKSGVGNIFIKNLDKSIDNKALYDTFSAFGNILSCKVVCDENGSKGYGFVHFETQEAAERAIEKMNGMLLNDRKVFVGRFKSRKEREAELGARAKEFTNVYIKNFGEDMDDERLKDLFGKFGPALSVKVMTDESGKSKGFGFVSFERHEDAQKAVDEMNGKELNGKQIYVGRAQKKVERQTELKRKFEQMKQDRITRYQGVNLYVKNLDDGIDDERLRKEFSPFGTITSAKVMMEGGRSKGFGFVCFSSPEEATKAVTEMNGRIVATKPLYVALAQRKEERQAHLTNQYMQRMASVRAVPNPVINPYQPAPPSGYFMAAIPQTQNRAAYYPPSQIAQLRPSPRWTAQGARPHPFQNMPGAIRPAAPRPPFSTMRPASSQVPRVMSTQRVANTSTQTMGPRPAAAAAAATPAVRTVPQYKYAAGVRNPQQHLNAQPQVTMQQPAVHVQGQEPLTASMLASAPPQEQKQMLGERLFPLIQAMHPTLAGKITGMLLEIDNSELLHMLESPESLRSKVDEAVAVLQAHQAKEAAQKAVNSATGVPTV
# Env fusion inh = inhibitors of HIV-1 Env-driven cell-cell fusion, primary screen, HeLa-JRFL effector, CEM21 target cells, luciferase | inhibition, % at 12.3 µM | actives 1.1% (n = 360,000);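 active = mean replicate inhibition score of at least 50 and every replicate individually at or above 50; inconclusive = only one of the two criteria met; inactive = mean below 50 and not all replicates reaching 50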;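 also: 0% = plate neutral controls and 100% = maraviroc near 300 nM; one replicate is shown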
# Rce1 inhib = yeast Rce1p protease inhibitors, primary screen, biochemical, fluorescence, cell-free homogeneous | yeast membranes, quenched prenylated peptide cleavage fluorescence | calls only | actives 0.27% (n = 290,000) | AID 2563, 2010;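 active = fall in fluorescence gain of 50% or more versus controls, with final raw signal at or below 3038400; inconclusive = same 50% fall but final raw signal above 3038400; inactive = fall in fluorescence gain under 50%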;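 also: plate controls were neutral control wells for no effect and wells lacking membranes for full effect; tested at 10 µM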
# eIF4H inh retest = further read-out of eIF4H inh, marked with its call; inhibition, %; compound at 20 µM; confirmation average;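 mean of two retest wells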
# PABP FP inh retest = recorded beside PABP FP inh, whose call it bears; inhibition, %; compound at 20 µM; confirmation repeats;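 mean of two retest wells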
# MT1-MMP act inh RFP = further read-out of MT1-MMP act inh, marked with its call; RFP signal change, %; measured here: RFP expression control read;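 0 = vehicle wells; hits needed this value within 50% of zero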
# Numbers without * were called inactive; i = inactive; ? = inconclusive; nt = no result given; & = joins results of further samples; [ ] = remark or other dose.
SMILES,UUG fidelity,MT1-MMP act inh,MT1-MMP act inh RFP,CSC inhib,eIF4H inh,PABP FP inh,Env fusion inh,Rce1 inhib,others
CCn1cc(S(=O)(=O)CC(=O)Nc2cc(C)ccc2C)c2ccccc21,-5.7,1.4,4.8,-13.6,-1.7,-0.4,-28.1,i,
Cc1onc(-c2ccccc2)c1C(=O)N1CCCN(C(=O)c2c(-c3ccccc3)noc2C)CC1,-14.8,-8.1,6.2,-7.7,-8.0,-10.5,-13.8,i,
CCCc1cc(=O)[nH]c(SCC(=O)c2ccc3c(c2)OCCO3)n1,nt,-0.4,0.5,-4.8,-6.7,-7.2,7.0,i,
Cc1ccc(C(=O)c2cn(-c3ccc(F)c(Cl)c3)nn2)cc1,-15.4,0.0,3.0,-0.6,-16.0,2.3,-94.2,i,
O=C(Oc1ccccc1F)C1CCN(C(=O)c2ccc(F)cc2)CC1,-1.0,2.6,4.7,10.3,nt,nt,-6.3,i,
O=S(=O)(NCCN1CCCC1)c1ccc(Br)cc1,-22.4,-2.2,1.4,-6.1,-2.3,-8.9,-8.9,i,
Nc1nc(N2CCN(C(c3ccccc3)c3ccccc3)CC2)n[nH]1,nt,-4.4,0.3,-0.8,-4.7,-3.9,-4.2,i,
N#Cc1c(N)nc2c(c1N)CC(C(F)(F)F)O2 (stereo not drawn),nt,-1.9,3.3,3.0,-0.9,7.8,0.0,i,
CCCCc1c(O)n2c(nc3ccccc32)[nH]c1=O,-13.3,4.7,2.5,nt,-3.9,-2.0,nt,i,
COc1ccc(-n2c(SCC(=O)Nc3ccc(NC(C)=O)cc3)nc3c([nH]c4ccccc43)c2=O)cc1OC,-12.3,-2.4,2.2,-3.6,-2.2,7.2,8.2,i,
O=C(N/N=C\c1ccc2c(c1)OCO2)c1cncc(Br)c1,-12.5,3.6,6.9,16.8,2.4,3.9,-16.1,i,
Cc1ccc(C(=O)Nc2nc(-c3cccnc3)cs2)o1,nt,1.8,-5.3,3.2,5.9,1.7,nt,i,
CCN(CC)CCCNC1=C(Cl)C(=O)c2ccccc2C1=O,-1.7,2.1,4.5,106.6*,4.3,-1.1,8.2,i,
CCc1nc2ccc(C(=O)NCCCn3ccnc3)cn2c1N(C)CCC(C)C,-14.5,3.1,5.2,nt,nt,nt,-3.1,nt,
Cc1cccc(C(=O)N[C@H](C(=O)Nc2ncc(C)s2)C(C)C)c1,nt,-5.1,-4.9,78.7*,-5.5,-5.7,-323.9,i,
Cc1cc(C)c2cc(CNC3CCCC3)c(Cl)nc2c1,nt,1.4,1.9,-5.6,12.0,2.5,-6.7,i,
CC1(C)CC(=Cc2ccccc2[N+](=O)[O-])C(=O)c2ccccc21,-7.8,-2.6,-4.1,nt,nt,nt,-17.3,nt,
NC(=O)C1CCCN(Cc2ccc3ccccc3c2)C1 (stereo not drawn),-19.5,1.2,5.0,-11.6,1.4,7.0,11.4,i,
Cc1ccc(N(C)C(=O)CCS(=O)(=O)c2cc3c(cc2Cl)NC(=O)CO3)cc1,-6.3,-7.8,2.9,3.9,-4.2,-11.6,-10.7,i,
O=C(COc1ccccc1)NNC(=O)c1cc2ccccc2oc1=O,-7.4,2.6,-1.0,0.7,-0.4,5.1,-3.9,i,

# Already shown: entries from further up.
SMILES,UUG fidelity,MT1-MMP act inh,MT1-MMP act inh RFP,CSC inhib,eIF4H inh,PABP FP inh,Env fusion inh,Rce1 inhib,others
NC(=O)C1CCCN(Cc2ccc3ccccc3c2)C1 (stereo not drawn),-19.5,1.2,5.0,-11.6,1.4,7.0,11.4,i,
Cc1ccc(N(C)C(=O)CCS(=O)(=O)c2cc3c(cc2Cl)NC(=O)CO3)cc1,-6.3,-7.8,2.9,3.9,-4.2,-11.6,-10.7,i,
O=C(COc1ccccc1)NNC(=O)c1cc2ccccc2oc1=O,-7.4,2.6,-1.0,0.7,-0.4,5.1,-3.9,i,

# The list continues.
SMILES,UUG fidelity,MT1-MMP act inh,MT1-MMP act inh RFP,CSC inhib,eIF4H inh,PABP FP inh,Env fusion inh,Rce1 inhib,others
CCC(C)c1ccccc1N1CC(C(=O)Nc2ccc(N3CCOCC3)cc2)CC1=O (stereo not drawn),-8.8,-2.0,1.6,5.3,nt,nt,9.9,nt,
N#Cc1ccccc1NC(=O)COC(=O)/C=C/c1cn(-c2ccccc2)nc1-c1ccc(Cl)cc1,4.1,1.6,-1.2,nt,-8.8,5.5,2.4,nt,
O=C(COC(=O)C1CC2C=CC1C2)Nc1ccccc1[N+](=O)[O-] (stereo not drawn),-8.9,0.5,-2.1,-10.7,nt,nt,nt,nt,
Cc1c(C(=O)N(C)c2ccccc2)oc2c1C(O)CC(C)(C)C2 (stereo not drawn),-9.4,0.6,3.8,-11.5,0.9,0.5,0.2,i,
NCCCCc1cn(CC(=O)N2CCNCC2)nn1,9.0,1.1,0.3,0.6,7.1,57.1*,8.6,i,
CCOC(=O)C1(Cc2cccc(F)c2)CCN(Cc2cnn(CC)c2)CC1,nt,1.0,-2.9,-0.2,2.7,-1.5,-11.5,i,
Cc1cccc(OCCCn2ccnc2)c1,-11.1,-3.6,-1.1,3.9,-9.0,-4.7,nt,i,
COc1cc(C(=O)NNC(=S)NC(=O)/C=C/c2ccccc2)cc(OC)c1OC,-29.1,0.5,-0.8,nt,6.4,-6.9,7.1,i,
COc1cccc(C(=O)Nc2cc3c(cc2Cl)OCCCO3)c1,nt,2.9,8.0,0.9,-5.6,115.5,-108.4,i,eIF4H inh retest=-12.6;PABP FP inh retest=5.4
Cc1ccc(-c2ccc(/C=N/NC(N)=S)o2)cc1,-41.1,3.9,8.5,25.3,-1.9,-3.8,i,i,
COc1cccc(COC(=O)C2CC(=O)N(Cc3ccc(C)cc3)C2)c1OC (stereo not drawn),nt,1.9,2.5,-5.9,nt,nt,13.4,i,
COc1cc(/C=C2/C(=N)N3C=CSC3=NC2=O)ccc1OCCCOc1ccccc1C,17.0,-3.0,-3.5,3.8,-5.7,-6.9,nt,i,
COC(=O)Cc1ccc(NC(=S)N2CCC(Cc3ccccc3)CC2)cc1,-25.2,-2.3,-0.3,-6.6,-6.8,7.8,-40.0,i,
COc1cc(-c2n[nH]c(=S)n2-c2ccccc2C(F)(F)F)cc(OC)c1OC,nt,7.8,6.6,-6.8,3.9,2.6,17.6,i,
O=C(NCCCN1CCOCC1)c1ccco1,-9.1,-5.0,-2.7,-5.1,3.2,2.9,-9.3,i,
CCCC(=O)Nc1ccccc1NC(=O)c1ccc(OC(C)=O)cc1,443.5*,-1.5,1.1,3.9,0.8,10.7,-17.2,i,
CCOC(=O)CCCCCC(=O)Nc1ccc2c(c1)C(=O)N([C@@H](C)CO)C[C@H](C)[C@H](CN(C)S(=O)(=O)c1ccc(OC)cc1)OCCCC[C@H](C)O2,-25.9,4.6,3.7,nt,nt,nt,4.0[16.7 µM],nt,
CCCCn1c(SCC(=O)NC2CCCC2)nnc1-c1ccco1,nt,2.2,6.8,nt,-5.2,1.5,-0.1,i,
COc1cccc(NC(=O)c2ccc3c(c2)N(C)CCS3)c1,-24.0,7.9,-2.6,34.3,-2.1,-4.6,-189.5,i,
COc1ccccc1N1C(=O)[C@@H]2C(C(=O)CN3C(=O)c4ccccc4C3=O)=NN[C@@H]2C1=O,-0.6,9.7,6.8,-7.0,-2.4,-7.1,4.0,i,
C=CCOc1ccc(C2C(C(=O)c3ccco3)=C(O)C(=O)N2CCCN(CC)CC)cc1 (stereo not drawn),4.3,3.9,1.7,0.8,2.5,5.6,-35.1,i,
O=C(NN=Cc1ccccc1C(=O)O)c1cccc(S(=O)(=O)Nc2cccc(C(F)(F)F)c2)c1,-9.4,-2.0,-1.9,19.2,nt,nt,nt,nt,
CCOc1ccc(NC(=O)c2ccc3c(c2)N(Cc2ccc(F)cc2)C(=O)CS3=O)cc1 (stereo not drawn),5.3,3.6,0.3,0.7,-0.5,-16.7,-10.1,i,
O=c1nccc(N/N=C/c2ccccc2O)[nH]1,nt,4.9,4.1,8.3,10.0,2.2,17.8,i,
CN(C)CCN(C(=O)c1ccc(S(=O)(=O)N(C)c2ccccc2)cc1)c1nc2cc3c(cc2s1)OCO3,-2.8,4.9,3.9,3.7,-5.4,-7.6,-0.1,i,
COc1cc(/C=C/C(=O)O)cc(OC)c1O,4.8,-1.0,0.6,-2.1,nt,nt,17.2,i,
O=C(CCCN1C(=O)/C(=C\c2cccs2)SC1=S)Nc1ccccc1O,-14.1,0.1,4.3,nt,nt,nt,-4.1,nt,
O=C(CCCc1nc(-c2ccc(Cl)cc2)no1)N1CCOCC1,-5.5,-1.0,-12.2,-9.8,4.0,-7.8,?,i,
COc1ccccc1NC(=O)CSc1nnc(-c2ccccn2)o1,-17.0,-0.5,1.6,-3.3,-9.0,-5.9,1.8,i,
CCn1c(SCC(=O)N2CCOCC2)nc2c(c1=O)SC(C)C2 (stereo not drawn),-9.6,1.4,6.7,-6.8,10.0,9.5,nt,i,
O=C(c1cc2n(n1)C(C(F)(F)F)CC(c1ccc(F)cc1)N2)N1CCCC1 (stereo not drawn),-6.8,5.8,1.8,-3.9,-7.2,-4.2,nt,i,
O=C(CC1C(=O)NCCN1C(=O)Nc1ccc(Cl)cc1)Nc1ccc(F)cc1 (stereo not drawn),-5.4,-1.1,-1.3,2.4,11.4,2.9,-3.8,i,
Fc1c(F)c(C(F)(F)F)c(F)c(F)c1N1CCN(c2ccc3nnc(C(F)(F)F)n3n2)CC1,-10.9,27.4,2.0,20.9,-7.7,2.5,nt,i,
N=C1C(c2nc3ccccc3s2)=C(O)CN1C1CCC(O)CC1 (stereo not drawn),nt,nt,nt,-12.4,-2.6,11.4,6.5,i,
COc1ccc(S(=O)(=O)N(CC(=O)NCC2CCCO2)C2CCCCC2)cc1OC (stereo not drawn),12.1,1.6,2.9,-8.9,-2.9,12.3,1.9,i,
COC(=O)c1cc(OC)c(OC)c(OC)c1NC(=O)c1ccc(S(=O)(=O)N(C)C)cc1,-6.7,1.1,3.1,-11.9,-1.1,3.5,-2.8,i,
COCC#Cc1cnc2c(c1)C(=O)N([C@H](C)CO)C[C@H](C)[C@@H](CN(C)S(=O)(=O)c1ccccc1)O2,-2.6&5.2&0.2,1.7,3.7,nt,nt,nt,5.2,nt,
Nc1ncnc2nc(SCCN3CCCCC3)[nH]c12,-17.0,-4.8,-2.2,-4.1,-1.2,-15.7,-53.1,i,
CCOc1cc(/C=C2\N=C(C)OC2=O)cc(Br)c1OCCc1ccccc1,0.4,1.9,2.0,6.3,-3.6,16.1,nt,i,
O=C(Nn1c(O)c(C=C2N=c3ccccc3=N2)sc1=S)c1ccc(Cl)cc1,nt,7.6,7.5,-10.9,22.6,24.3,3.1,i,
CC1=C(C(=O)N(C)CCC#N)C2(CCCCC2)OC1=O,-13.7,0.7,5.4,-12.6,-5.4,2.3,3.8,i,
CCOc1ccc(C(OC(=O)c2ccco2)C(=O)NCc2ccc(C)cc2)cc1 (stereo not drawn),-17.8,-5.3,-1.0,3.3,-4.3,-4.6,-177.5,i,
